miR-21 FLuc: miR-21 reporter, rising signal. HeLa miR-21 FLuc reporter, luciferase, 48 h. Potency, µM (titrated, usually from 38.3 µM), inactives show top-dose reporter change, positive = more light. 340,000 tested, under 10 active; active = well fitted rising curve with a large enough effect; inconclusive = small, poorly fitted or top-dose-only effect; inactive = no such curve, though single readings can be large or run the other way;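 also: % of control where 0% means no effect; miR-21 action dims this reporter so a rising signal means less miR-21 action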
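Compounds were titrated across several concentrations (up to approximately 40 uM) and incubated 48 hours with HeLa miR-21-FLuc reporter cells (miR-21 target sequence downstream of FLuc, endogenous miR-21). Readout was firefly luciferase luminescence after lytic detection reagent.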
Rango release inh: inhibitors of RanGTP-induced Rango-importin beta complex dissociation; Biochemical FRET Rango-importin beta, RanGTP-induced dissociation; 0.071% of 340,000 active; AID 540253; Potency, µM (top dose mostly 46.1 µM), for the others: at the top dose activity change, negative = inhibition; active means falling FRET ratio curve, often poorly fitted, with flat reads before Ran was added; inconclusive means other falling curves, or compound fluorescence or quenching; inactive means flat or rising ratio curve;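 also: potency is read from the fitted curve at half-maximal effect; % of control where 0% means no effect; nearly all actives have a fitted effect of over 45% in size; -100% = wells without RanGTP and RCC1; the record marks most hits as doubtful in a second field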
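Two FRET readings bracket the reaction: one 5 min after compound meets Rango–importin beta, another 45 min after RanGTP-RCC1 (0.6 uM Ran, 0.2 uM RCC1, 2 mM GTP) is added. Only the second defines inhibition.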
Rango complex inh: prevents formation of the Rango-importin beta complex; Rango CFP/YFP FRET sensor + importin beta, 45 min; Q14974; Potency, µM (series often up to 92.2 µM), inactives show at the highest dose inhibition of complex formation; 0.031% of 340,000 active; active = rising FRET ratio curve, often small or poorly fitted; inconclusive = mostly compound fluorescence or quenching in the first reads; inactive = flat curves in all reads;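 also: potency is read from the fitted curve at half-maximal effect; 0% = DMSO wells and 100% = buffer wells lacking importin beta; nearly all actives have a fitted effect of over 15% in size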
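FRET biosensor Rango (snurportin 1 IBB between N-terminal EYFP and C-terminal Cerulean), 50 nM in PBS/1 mM DTT/0.02% Tween-20/0.1% BSA, preincubated 5 min RT with compound; 0.125 microM importin beta added, 45 min RT, CFP/YFP FRET ratio read.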
GLA inh pH 4.5: blocks human alpha-galactosidase A at pH 4.5. 230,000 tested, under 10 active. activity change, negative = inhibition, % at 105 µM. P06280. purified enzyme, 4-MU-alpha-Gal fluorescence, pH 4.5; inconclusive = small, poorly fitted or top-dose-only inhibition, or a rising curve; inactive = flat fitted curve, though single readings scatter; no compound was filed as active;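 also: 0% = full activity with enzyme and -100% = basal without enzyme; dose as in the result columns while the protocol names 77 µM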
Target sequence (P06280 whole entry, looked up): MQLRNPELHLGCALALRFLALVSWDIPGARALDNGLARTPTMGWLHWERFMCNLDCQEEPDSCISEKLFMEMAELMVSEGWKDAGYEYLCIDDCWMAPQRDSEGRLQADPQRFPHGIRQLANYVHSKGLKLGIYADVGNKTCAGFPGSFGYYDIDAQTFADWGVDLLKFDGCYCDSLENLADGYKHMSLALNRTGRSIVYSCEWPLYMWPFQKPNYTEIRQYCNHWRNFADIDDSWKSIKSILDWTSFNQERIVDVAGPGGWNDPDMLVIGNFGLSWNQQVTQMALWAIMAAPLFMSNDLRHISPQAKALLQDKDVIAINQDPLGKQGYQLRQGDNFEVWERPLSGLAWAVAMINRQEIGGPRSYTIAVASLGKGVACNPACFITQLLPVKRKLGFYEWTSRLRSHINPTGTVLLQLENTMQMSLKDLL
* marks the source's active call; other numbers are inactive results; ? = inconclusive; . = not tested or not shown; & = joins results of further samples. These rows are one share of the data, so the mix of outcomes need not match the whole.

item | miR-21 FLuc | Rango release inh | mol | Rango complex inh | GLA inh pH 4.5
1 | -4.1% | 4.9% | N#CCC1c2ccccc2CCN1C(=O)Nc1cccc(Cl)c1 (stereo not given) | 2.0% | 8.8
2 | -8.4% | -2.6% | CCOC(=O)C1=C(N)Oc2c(oc(CO)cc2=O)C1c1ccc(Cl)cc1 (stereo not given) | 0.0% | -1.6
3 | 0.5% | 1.8% | COc1ccc(/C=N/NC(=O)c2nnn(-c3nonc3N)c2-c2cccs2)cc1OC | ? | .
4 | -2.4% | -0.8% | COc1cccc(/C=N/n2nnc3c(cnn3-c3ccccc3)c2=O)c1 | -0.5% | 8.8
5 | 0.5% | -3.1% | Cc1[nH]nc2c1C(c1ccoc1)C(C#N)=C(N)O2 (stereo not given) | 0.2% | -6.8
6 | -0.9% | 7.8% | Cc1ccc(-c2nnn(CC(=O)Nc3ccccc3N3CCOCC3)n2)cc1 | -4.2% | -4.1
7 | -53.8% | -12.0% | COc1cc(N=Nc2ccc3ccccc3c2)ccc1O | 1.4% | .
8 | . | 10.3% | CN(C)CCN(C(=O)C1CCN(S(=O)(=O)c2cccs2)CC1)c1nc2ccccc2s1 | ? | .
9 | -18.8% | -8.6% | Cn1c(N/N=C/c2cccs2)cc(=O)n(C)c1=O | -1.2% | 1.3
10 | . | 22.8% | O=C(NCCN1CCOCC1)c1ccc(S(=O)(=O)Nc2ccccc2)cc1 | -0.1% | .
11 | -0.7% | 0.1% | CC(=O)c1ccc(NC(=O)CN2CCN(c3ncccn3)CC2)cc1 | -1.6% | 1.2
12 | -0.4% | -7.1% | CCN1C(=O)C2C(C1=O)N1C(c3cccs3)C3C(=O)N(CC)C(=O)C3N1C2c1cccs1 (stereo not given) | 3.4% | 3.2
13 | -7.9%&-3.7% | 0.0% | CS(=O)(=O)N1CCc2cc(C(=O)N3CCN(c4ccc(F)cc4)CC3)ccc21 | 0.5% | .
14 | 0.2% | -1.4% | O=C(NC1CCCN(Cc2ccc(Cl)cc2)C1)c1c(F)ccc(F)c1F (stereo not given) | -0.3% | .
15 | -2.1% | 25.2% | COc1cccc(/C=C/C(=O)OCC(=O)Nc2cc(S(=O)(=O)N3CCOCC3)ccc2C)c1 | -0.1% | -16.1
16 | -5.3% | 3.9% | CCN1CCN(C(=O)CCc2nc3ccccc3n2-c2ccccc2)CC1 | 0.7% | -6.4
17 | 0.4% | -22.3% | CC1Nc2ccccc2C(=O)N1NS(C)(=O)=O (stereo not given) | 0.4% | -7.7
18 | -0.2% | -1.7% | COc1ccc(C(=O)NC(C)c2cc(OC)c(OC)cc2Br)cc1 (stereo not given) | 2.0% | 3.2
19 | -5.0% | 1.4% | O=C(NC1CCN(Cc2ccccc2)CC1)c1ccccc1 | 1.7% | .
20 | -1.5% | -5.1% | CC(C)n1nccc1N(Cc1ccc(C#N)cc1)S(=O)(=O)c1ccccc1 | -0.9% | .
21 | -11.6% | -11.0% | Cc1cccc(NC(=O)CSc2ccc3nnc(-c4cccnc4)n3n2)c1 | 0.4% | .
22 | 1.7% | -9.4% | Cc1cc(NC(=O)CCC(=O)N(Cc2ccco2)C(C(=O)NC2CCCC2)c2ccccc2C)no1 (stereo not given) | -0.6% | -3.7
23 | -0.9% | -17.9% | Nc1nonc1-n1nnc(C(=O)N/N=C/c2cc(Br)ccc2O)c1CNc1ccccc1 | ? | .
24 | -4.3% | -5.4% | COc1cc(OC)cc(C(=O)NCCCN2CCN(CCCNC(=O)c3cc(OC)cc(OC)c3)CC2)c1 | -4.1% | -3.8
25 | -5.8% | 0.4% | Cc1cc(C)c(OCCN2CCOCC2)c(Cl)c1 | 7.2% | .
26 | -4.9% | -9.1% | CN(C)CC(C)(C)NS(=O)(=O)c1ccc(Cl)cc1 | -0.6% | -7.2
27 | -0.7% | 11.2% | CC(C)CNC(=O)c1ccccc1Oc1ccccc1 | -0.1% | 2.9
28 | 17.4% | -4.5% | CCN(CC)P(=O)(Nc1ccc(SC(F)F)cc1)c1ccc(N(C)C)cc1NC(=O)c1ccco1 (stereo not given) | 3.4% | -9.8
29 | -1.9% | -23.9% | COc1ccc(-c2cc(-c3ccc(O)cc3)nc(N)c2C#N)cc1OC | ? | 2.6
30 | -5.4% | -7.4% | CCOc1cc(C2C3=C(CC(C)(C)CC3=O)Nc3n[nH]c(C)c32)ccc1O (stereo not given) | 1.0% | 3.0
31 | -1.9% | -12.7% | C=CCNC(=S)/C(=C(\[O-])c1ccc(Cl)cc1)[n+]1ccccc1 | -1.8% | 4.9
32 | ? | -5.1% | CCCCCCCNC(=O)C1(CC2CC(c3ccc(Cl)cc3)=NO2)CCNCC1 (stereo not given) | 1.3% | .
33 | -6.3% | 1.5% | COc1ccc(C(C)(C)C)cc1NC(=O)CNc1cccc2ccccc12 | 1.1% | 6.0
34 | . | 20.8% | CC[C@]12C(=O)N(C)C[C@H]([C@@H]3C(=O)N(C)C(=O)[C@@H]31)N2C(=O)c1ccc(Cl)cc1 | ? | .
35 | -2.4% | 11.6% | O=C(CSc1ncn[nH]1)N1CCN(S(=O)(=O)c2ccc(Cl)cc2)CC1 | -0.4% | 3.7
36 | . | 7.1% | Brc1cnc(OCc2ccccc2)nc1OCc1ccccc1 | 0.7% | .
37 | 0.7% | 3.3% | CCOc1ccccc1/C=C(/NC(=O)c1ccccc1)C(=O)NC(C)c1ccccc1 (stereo not given) | 3.5% | -13.6
38 | 23.5% | 1.6% | COc1cc2c(c(OC)c1OC)-c1c(cc3c(c1O)OCO3)C[C@@H](C)[C@@H](C)C2 | 0.1% | -2.7
39 | 0.6% | 5.8% | COc1ccccc1CCc1nnc(CCC(=O)NC(C)Cc2cccs2)o1 (stereo not given) | -0.5% | 8.7
40 | . | 7.4% | CCc1nnc(NS(=O)(=O)c2ccc(NC(=O)c3cccc(OC(F)(F)C(F)F)c3)cc2)s1 | -3.9% | .
41 | -44.5% | -3.6% | O=C(COc1ccc(Cl)cc1)Nc1ccc(Cl)cn1 | -1.1% | 5.3
42 | -2.8% | 13.5% | Cc1cccc2c(CC(=O)O)noc12 | 8.9% | -2.0
43 | 4.3% | -7.3% | CC(C)CC(=O)N1CCN(Cc2ccc(Cl)cc2)CC1 | -3.4% | .
44 | . | 7.4% | Cc1cc(C(=O)NC2CCCCCCC2)ccc1[N+](=O)[O-] | -0.1% | .
45 | . | 10.2% | Cc1ccc(S(=O)(=O)N2CCOCC2)cc1C(=O)Nc1ccc(N2CCCCCC2)cc1 | 0.5% | .
46 | 22.6% | 1.6% | CCOC(=O)CCCc1ccc(/C(C)=N/NC(N)=S)cc1 | -2.2% | 5.2
47 | . | 4.2% | CC(NC(=S)NC(=O)c1ccccc1)c1ccccc1 (stereo not given) | 5.7% | .
48 | 15.2% | 1.4% | Cc1cc(C)c(NC(=O)c2ccc(CN3CCc4ccccc4C3)cc2)c(C)c1 | -0.2% | -4.2
49 | -7.9% | -11.9% | CCCCCCn1c(SCCCC)nc2c1c(=O)[nH]c(=O)n2C | -0.8% | 0.4
50 | -0.8% | -1.8% | Cc1nn2cnnc2c(C)c1Cc1ccc(Cl)cc1 | 0.3% | .
51 | -10.9% | -0.3% | C[C@]12CCC(O)CC1=CCC1C2CC[C@]2(C)/C(=N\NC(N)=S)CCC12 (stereo not given in full) | -2.1% | .
52 | -0.1% | 0.2% | Cc1cccc(OCC(=O)NC(=S)Nc2ccc(S(=O)(=O)NC3CCCCC3)cc2)c1 | 2.9% | -3.9
53 | . | -10.6% | CCCCN(C(=O)c1cccc(-n2cccc2)c1)c1c(N)n(CCCC)c(=O)[nH]c1=O | ? | .
54 | -24.6% | 1.2% | O=c1ccc(-c2ccc(S(=O)(=O)Nc3cccc([N+](=O)[O-])c3)s2)n[nH]1 | 0.4% | .
55 | -3.3% | 20.3% | Cc1cc(SCC(=O)N/N=C/c2ccc(O)c(O)c2)nc2ccccc12 | -1.5% | .
56 | -18.7% | 2.7% | CNC(=O)c1cc(C(=O)c2ccc(C(F)(F)F)cc2F)c[nH]1 | 2.2% | -1.3

Following part:
item | miR-21 FLuc | Rango release inh | mol | Rango complex inh | GLA inh pH 4.5
57 | . | -3.0% | COc1ccc(NC(=O)N(C)C[C@H]2Oc3ccc(NC(=O)Cc4ccccc4)cc3CC(=O)N([C@H](C)CO)C[C@H]2C)cc1 | -3.7% | .
58 | -4.3% | 4.2% | Cc1ccc(CSCc2ccc(C(=O)NCCC(C)C)o2)cc1 | -1.7% | .
59 | 12.0% | 0.5% | Cc1[nH]c(N=Nc2ccccc2)nc1N=Nc1ccccc1 | ? | 0.1
60 | -6.9% | 9.6% | CCOc1ccc(N2C(=O)CN(c3cccc4ccccc34)C2=S)cc1 | -1.0% | 12.5
61 | . | 17.3% | O=C(c1ccc(-c2ccc([N+](=O)[O-])cc2)o1)N1CCN(S(=O)(=O)c2cccs2)CC1 | ? | .
62 | 0.8% | -3.2% | Cc1cnc(C(=O)OCC(=O)Nc2ccc(C)c(S(=O)(=O)N(C)C)c2)cn1 | -1.7% | 7.1
63 | 1.3% | 3.6% | CCN(CC)C(=S)NC(=O)C12CC3CC(CC(C3)C1)C2 | 0.0% | 3.0
64 | -4.6% | -1.4% | CCN(c1ccc(NC(=O)COC(=O)c2ccc(C)s2)cc1)C(C)C | 0.2% | 0.4
65 | -16.4% | 0.5% | CCC(C)OC(=O)n1ccc(C(=O)Nc2nccs2)n1 (stereo not given) | 4.1% | -6.0
66 | -35.0% | 0.5% | C/C(=N\NC(=O)C(N)=O)c1ccc(NC(=O)c2cccs2)cc1 | -0.5% | 7.0
67 | -16.7% | -11.7% | O=C(N/N=C/c1cccc(O)c1)N/N=C/c1cccc(O)c1 | 0.2% | .
68 | -20.7% | -0.1% | Cc1ccc(-c2oc3ncnc(N)c3c2-c2ccc(C)cc2)cc1 | 4.8% | 4.2
69 | 19.4% | 1.0% | CC1(C)CC(=O)C2=C(C1)OC1=C(C(=O)CC(C)(C)C1)C2c1cc([N+](=O)[O-])cc([N+](=O)[O-])c1O | 0.3% | 6.5
70 | -5.3% | 6.8% | COc1ccc(NC(=O)C(NC(=O)c2ccc(=O)[nH]c2)c2ccc(C)cc2)cc1 (stereo not given) | -0.6% | 3.1
71 | -28.1% | -7.4% | CC(C)Sc1nc2ncnc(N)c2[nH]1 | -2.0% | -0.6
72 | 2.3% | 5.3% | O=C(O)CNc1ccccc1C(=O)O | -3.0% | 5.1
73 | -18.0% | -1.2% | COc1ccc(OC)c(S(=O)(=O)N(C)CC(=O)Nc2ccc3c(c2)OCO3)c1 | -0.3% | -0.5
74 | 5.5% | 21.9% | CCOc1ccccc1NC(=S)N1CCN(c2cccc(OC)c2)CC1 | 2.3% | .
75 | -4.3% | -14.5% | O=C(c1ccc(O)c(Cl)c1)N1CCN(S(=O)(=O)c2ccccc2)CC1 | 0.4% | .
76 | 2.3% | 8.6% | O=C(c1ccco1)N1CCC(c2nc3c(nnn3Cc3c(Cl)cccc3Cl)c(=O)[nH]2)CC1 | -2.5% | .
77 | -5.8% | -5.2% | Cc1cc(C)cc(N(C(=O)c2snc(C(N)=O)c2N)C(C(=O)NCC2CCCO2)c2cccs2)c1 (stereo not given) | -1.8% | -4.1
78 | -2.3% | -6.3% | CCS(=O)(=O)c1ccc(O)c(NC(=O)/C=C/c2ccc(Cl)cc2)c1 | 2.7% | -3.9
79 | 3.7% | -10.9% | CC1=NN(Cc2ccccc2)C(=O)C1C(c1ccccc1)C(C#N)C#N (stereo not given) | -0.8% | 5.2
80 | . | 9.7% | Cc1c(NC(=O)C(C)Sc2nccn2C)c(=O)n(-c2ccccc2)n1C (stereo not given) | -0.1% | .
81 | -0.4% | 8.1% | CC(C)N1CCN(CC2COc3ccccc3O2)CC1 (stereo not given) | -0.3% | .
82 | -4.3% | ? | Cc1ccc(C)c2nc(N3CCCC3)c(C#N)cc12 | ? | -3.5
83 | 0.3% | -12.1% | CC1=CCP(=O)(c2ccccc2)C1 (stereo not given) | 3.0% | -8.3
84 | -2.6% | 6.5% | O=C(CNC(=O)c1ccc(Cl)cc1Cl)NCC(=O)Nc1ccccc1N1CCOCC1 | 2.5% | 10.0
